B2AR ag = agonists of human beta-2 adrenergic receptor inducing internalization | Am2.2-beta2AR cells, FAP receptor internalization, flow cytometry; reference of the scale not given here | 340,000 compounds, 0.43% hits | response, % (concentration not given with the values) | AID 504454;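 active = response above a set limit, near 3 SD of response in nonfluorescent compounds, cut at about 42% in these data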;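 note: stock transfer was 100 nL into about 11 µL; a reference agonist was the positive control; negative values mostly stem from fluorescent compounds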
UCH37 DUB inh = blocks the human deubiquitinase UCH37 | purified proteasome/UCH37, Ub-AMC cleavage fluorescence | inhibition, % (test concentration not listed) | 330,000 compounds, 0.33% hits | AID 588478;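 active = mean of two replicates above 20%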;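 note: 0% = compound-free wells with enzyme and 100% = wells lacking proteasome; stock transfer was 100 nL into about 20 µL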
Target sequence (Q9Y5K5 whole entry, looked up): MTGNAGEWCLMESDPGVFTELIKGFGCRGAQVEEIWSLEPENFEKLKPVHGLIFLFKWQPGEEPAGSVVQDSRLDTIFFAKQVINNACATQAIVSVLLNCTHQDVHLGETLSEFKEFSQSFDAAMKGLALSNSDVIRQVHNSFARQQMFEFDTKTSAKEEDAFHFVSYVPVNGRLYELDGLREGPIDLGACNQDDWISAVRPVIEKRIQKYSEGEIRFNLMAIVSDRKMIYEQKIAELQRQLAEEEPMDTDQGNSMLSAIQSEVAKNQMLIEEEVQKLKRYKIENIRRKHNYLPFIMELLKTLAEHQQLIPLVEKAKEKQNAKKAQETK
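Material: human UCH37 enzyme supplied as purified proteasome complex / Amount: 0.15 nM proteasome as dispensed / Buffer or medium: pH 7.4 Tris-HCl (50 mM) with ovalbumin, ATP-MgCl2, DTT / Times: preincubation 30 min, reaction 25 min, room temperature / Technique: AMC fluorescence from Ub-AMC cleavage, excitation 355 nm, emission 460 nm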
HNF4A DNA FP = change in binding of human HNF4 alpha to DNA. P41235. HNF4a-FITC DNA binding, fluorescence polarization, 1 h. AID 1224865. 360,000 compounds, 0.3% hits. activity change, % at 10 µM; in the data active = activity change above about 30%, passing the limit was not always enough;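 note: controls were the assay level and a saturating level of protein; the project sought stronger binding though the title names inhibitors; some compounds called inactive have numbers as strong as hits; positive values seem to mean higher polarization but the record does not say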
Target sequence (P41235 whole entry, looked up): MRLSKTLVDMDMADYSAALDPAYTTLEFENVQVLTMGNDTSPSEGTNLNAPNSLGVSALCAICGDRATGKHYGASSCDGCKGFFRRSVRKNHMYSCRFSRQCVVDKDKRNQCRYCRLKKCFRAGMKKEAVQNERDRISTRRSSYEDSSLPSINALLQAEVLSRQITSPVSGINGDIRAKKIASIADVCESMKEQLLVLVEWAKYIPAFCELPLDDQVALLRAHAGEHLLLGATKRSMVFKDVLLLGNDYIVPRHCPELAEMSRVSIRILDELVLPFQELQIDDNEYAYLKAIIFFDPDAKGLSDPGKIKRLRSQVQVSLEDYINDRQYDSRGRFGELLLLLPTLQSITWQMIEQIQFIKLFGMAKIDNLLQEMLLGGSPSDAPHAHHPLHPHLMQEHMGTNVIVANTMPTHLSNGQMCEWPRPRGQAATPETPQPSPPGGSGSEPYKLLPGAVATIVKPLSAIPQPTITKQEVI
Vif TR-FRET = inhibitors of Vif binding to APOBEC3G peptide, primary screen, biochemical, TR-FRET, GST-Vif 1-94, biotin-A3G peptide, dose response retest (AID 1117319) | TR-FRET GST-Vif / biotin-A3G peptide binding; higher % means a stronger effect; test concentration not given here; strong numbers were not always called active | inhibition, %, or IC50 in µM where a hit was titrated | 260,000 compounds, 0.57% hits;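 active = above the screen mean plus three standard deviations and confirmed in dose response; inconclusive = results disagree or hit not tested in dose response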;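 note: Vif residues 1-94 fused to GST binding biotinylated APOBEC3G peptide 110-148; 0% = full assay without inhibitor and 100% = GST in place of GST-Vif; retest series ran down from 100 µM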
E coli growth = E. coli growth inhibition | AID 1053175 | Escherichia coli growth, OD600, 23 h; stronger effect = lower value | OD600 absorbance (concentration not given with the values) | 330,000 compounds, 0.21% hits;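 active = OD600 absorbance below the run mean of sample wells minus 3.6 SD, in any replicate, cut at about 0.56 in these data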;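 note: stock transfer was 300 nL into about 60 µL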
A1 inh = inhibitors of the anti-apoptotic protein A1, read as caspase activation; MEF A1-2A-BIM cells, Caspase-Glo 3/7 luminescence, 3 h; percent of clofoctol response, vehicle zero; caspase activation, % (test concentration not listed); 330,000 compounds, 0.066% hits; AID 2462;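 active = over half of replicate activation scores above 10%, or exactly half above 10 with the replicate mean above 10; inconclusive = replicate mean below 10 yet half the replicates above 10; inactive = over half of replicates below 10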;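 note: wells of about 30 µL received 50 nL stock; many hits fall short of the cut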
LANA-H2B inh = blocks KSHV LANA binding to histone H2A/H2B; cell-free LANA-H2A/H2B peptide, fluorescence polarization; inhibition, % (concentration not given with the values); 320,000 compounds, 0.6% hits; AID 2629; in the data active = inhibition mostly above about 10%, no sharp cut-off; inactive = mostly below about 6.7%;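 note: stock transfer was 7.5 nL into about 10 µL; 0% = median of vehicle wells and 100% = median of positive control wells; one replicate is shown; the record names a cut of 25% in any replicate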
Starred values were filed as active, the others as inactive; ? = inconclusive; / = no result given; & = joins results of further samples.

Every second line gives: B2AR ag | UCH37 DUB inh | HNF4A DNA FP | Vif TR-FRET | E coli growth | A1 inh | LANA-H2B inh
- CCOC(=O)c1ccc(-n2c(CN3CCN(CCO)CC3)nc3ccc([N+](=O)[O-])cc3c2=O)cc1
    1 | 5.6 | 0.5 | 1% | 0.67 | -0.8 | -22
- COc1cccc(/C=N/NC(=O)CNC(=O)COc2cccc(C)c2)c1O
    0 | / | -0.2 | ? | / | 0.7 | -3.7
- O=C(Nc1cccc(Cl)c1Cl)C1CC(=O)N(c2ccc(Br)cc2)C1 (stereo not drawn)
    -6 | 3.8 | -3.7 | 4% | 0.68 | 1.5 | -2.1
- Cc1ccc(NC(=O)COC(=O)CCc2ccccc2)cc1S(=O)(=O)N1CCOCC1
    -3 | 0.7 | 0.8 | / | 0.65 | -0.3 | -3.6
- COc1cc2c3c(c1OC)C1(C=CC(=NO)C=C1)CC3N(C(C)=O)CC2 (stereo not drawn)
    2 | 4.3 | -0.1 | 1% | 0.72 | 0.1 | -1.2
- O=C(N[C@@H]1CCC(=O)N(CC[C@H](Oc2ccccc2)c2ccccc2)CC1)OCc1ccccc1
    -2 | 5.5 | 0.5 | / | / | 0.4 | -2.1
- COc1cccc(C(=O)Nc2nnc(-c3cccs3)s2)c1
    -10 | -4.4 | 1.0 | -14% | 0.73 | -0.2 | -3.9
- Cc1cccc(N2CCN(C(=O)CCC(=O)N3Cc4ccccc4Oc4ncccc43)CC2)c1C
    7 | 4.2 | 1.7 | / | 0.7 | 1.2 | 1.4
- C[C@H](NC(=O)c1cc2c([nH]c3ccccc32)c(-c2ccccc2)n1)C(=O)O
    8 | -156 | 1.7 | -4% | 0.68 | 0.4 | 2.4
- Cn1cccc1C(=O)OCC(=O)NNC(=O)c1ccc([N+](=O)[O-])cc1
    -5 | 2.7 | 2.4 | / | 0.64 | 0.4 | 1.5
- O=C(NC(=S)Nc1ccccc1N1CCN(C(=O)c2ccccc2)CC1)c1ccccc1F
    6 | 5.0 | -3.5 | / | 0.72 | 0.1 | 4.2
- c1ccc2c(c1)nc(-c1ccncc1)n1nnnc21
    -1 | -2.2 | 2.8 | 18% | 0.66 | 0.5 | -1.0
- NC(=O)C1CCN(C(c2ccccc2)c2nnnn2C2CCCC2)CC1 (stereo not drawn)
    10 | 1.8 | 1.0 | -4% | 0.69 | -0.6 | 7.8
- Cc1ccccc1N1C(=O)C2C3CCC(O3)C2C1=O (stereo not drawn)
    -1 | 3.5 | -3.0 | / | 0.65 | 1.2 | 0.1
- O=C(O)c1ccc(N/N=C/c2ccncc2)cc1
    2 | / | 0.6 | -5% | / | -9.3 | 0.3
- O=C(COC(=O)c1ccc(NS(=O)(=O)c2cccs2)cc1)NCc1ccco1
    3 | 1.9 | -49 | 5.9µM* | 0.72 | 0.5 | 0.3
- CC1=C(C(=O)N(C)C)C(c2cccs2)NC(=O)N1 (stereo not drawn)
    4 | 4.3 | 1.1 | 4% | 0.7 | 0.2 | 5.3
- COC(=O)C1=C(C)NC(=O)CC1c1cccc(OC)c1OC (stereo not drawn)
    -6 | 0.9 | 4.9 | ? | 0.68 | 0.4 | 6.3
- O=C(NCc1ccccn1)Nc1cccc([N+](=O)[O-])c1
    1 | 6.4 | -2.7 | / | 0.68 | 0.6 | 5.2
- COC(=O)CCCNC(=O)c1ccc2[nH]c(C)c(C)c2c1
    19 | 3.0 | 2.6 | / | 0.69 | -0.1 | -1.7
- CCN(CC)S(=O)(=O)c1cc(C(=O)N2CCc3ccccc32)ccc1Cl
    -3 | 1.1 | 7.3 | 1% | 0.68 | 0.3 | 0.8
- CC(=O)N1c2ccc(S(=O)(=O)NCCC(=O)Nc3ccccc3C)cc2CC1C (stereo not drawn)
    -7 | 2.1 | -2.5 | 3% | 0.61 | -0.3 | 1.5
- NC(=O)NCCCC(NC(=O)c1ccc(C#CC2(O)CCCCC2)cc1)C(=O)O (stereo not drawn)
    0 | -0.2 | -0.3 | / | 0.67 | 0.0 | 8.6
- CC1CCCCN1C(=O)c1cccc(NC(=O)c2ccccc2)c1 (stereo not drawn)
    -3 | 4.6 | -0.2 | / | 0.7 | 0.9 | 5.1
- CCCCC(=O)N1CCN(c2ccc(OC)cc2[N+](=O)[O-])CC1
    7 | 7.0 | -1.0 | 3% | 0.65 | 1.2 | 3.0
- O=C(CSc1nc2[nH]ncc2c(=O)[nH]1)Nc1cccc([N+](=O)[O-])c1
    -2 | 7.2 | 2.4 | -2% | 0.63 | -0.3 | -0.9
- O=C(Nc1ccc2c(c1)OCCO2)c1cccnc1Oc1ccccc1
    -7 | -0.6 | 2.4 | 8% | 0.68 | 0.0 | 2.8
- CCOC(=O)C1=C(C)NC(C)=C(C(=O)OCC)C1C(=O)OCC(=O)NCc1ccco1
    14 | -27 | -0.3 | 3% | 0.72 | 2.2 | 1.0
- Fc1cccc(NC(=S)NCCc2ccccc2)c1
    -1 | 2.0 | 0.8 | 3% | 0.65 | 0.8 | 6.6
- CC(=O)CSc1nnc2cc(C)c3ccccc3n12
    -12 | -1.2 | -2.0 | -13% | 0.61 | 1.1 | 0.9
- CCNc1nc(NCC)nc(N/N=C/c2ccc([N+](=O)[O-])o2)n1
    3 | / | 3.8 | 21% | / | 0.4 | -1.4
- CCCCNC(=O)COC(=O)c1c2c(nc3ccccc13)/C(=C\c1cccs1)CC2
    13 | -47 | 6.0 | 5% | 0.72 | / | /
- Cc1ccc(CSc2nnc(-c3cccs3)n2C)cc1
    -12 | 1.2 | -2.4 | 18% | 0.66 | -0.2 | 2.9
- Cc1noc(C)c1COc1ccccc1C(=O)NNC(=O)c1ccc(F)cc1
    0 | -0.2 | -2.1 | -7% | 0.68 | -0.1 | 4.1
- COc1ccc(S(=O)(=O)N(C)CC(=O)Nc2ccccc2C(F)(F)F)cc1
    -5 | 2.6 | 5.0 | 0% | 0.66 | 0.1 | -6.6
- COc1ccc(/C=C2/CCCC(CN(C)C)C2=O)cc1 (stereo not drawn)
    2 | / | 1.9 | 2% | / | / | /
- COCc1c(C(=O)N2CCN(Cc3c(F)cccc3Cl)CC2)oc2ccccc12
    5 | 2.7 | 0.0 | -7% | 0.66 | 1.1 | -1.3
- CC(=O)Nc1cccc(NC(=O)C2CC(=O)N(C3CCCCC3)C2)c1 (stereo not drawn)
    -3 | 0.9 | 2.0 | 2% | 0.68 | -0.5 | -1.8
- O=C(O)c1ccc(Cl)c(S(=O)(=O)Nc2cccc(C(=O)Nc3cccc(C(F)(F)F)c3)c2)c1
    13 | 1.7 | -1.6 | 9% | 0.67 | -0.2 | 70*
- CCOc1ccc(N2CC(C(=O)Nc3cccc(C)c3C)CC2=O)cc1 (stereo not drawn)
    1 | 0.5 | -0.7 | 12% | 0.68 | 1.1 | -7.4

The list goes on; the last 2 above are carried over.
Every second line gives: B2AR ag | UCH37 DUB inh | HNF4A DNA FP | Vif TR-FRET | E coli growth | A1 inh | LANA-H2B inh
- O=C(O)c1ccc(Cl)c(S(=O)(=O)Nc2cccc(C(=O)Nc3cccc(C(F)(F)F)c3)c2)c1
    13 | 1.7 | -1.6 | 9% | 0.67 | -0.2 | 70*
- CCOc1ccc(N2CC(C(=O)Nc3cccc(C)c3C)CC2=O)cc1 (stereo not drawn)
    1 | 0.5 | -0.7 | 12% | 0.68 | 1.1 | -7.4
- Clc1ccc(-c2nc3ccccc3[nH]2)cn1
    5 | -26 | 6.8 | -1% | 0.65 | -3.8 | -0.9
- COc1cc(/C=C2/S/C(=N/S(=O)(=O)c3ccccc3)NC2=O)c([N+](=O)[O-])cc1OC
    -4 | 19 | -4.1 | 17% | 0.66 | 0.0 | 0.2
- O=C(NCC1(O)CCCCC1)C1CCC(=O)N(Cc2cccc(C(F)(F)F)c2)C1 (stereo not drawn)
    2 | -0.4 | 1.8 | / | 0.72 | 0.5 | 2.6
- O=c1cc(CN2CCN(c3ccccc3O)CC2)nc2sccn12
    -5 | 2.1 | -4.4 | 16% | 0.74 | 0.1 | -1.3
- O=C(CN1CCN(c2ccccn2)CC1)Nc1ccc(Cl)c(C(F)(F)F)c1
    -5 | 0.9 | 0.6 | 4% | 0.74 | 0.8 | /
- COc1ccccc1C1/C(=C(/O)c2ccc(C)cc2)C(=O)C(=O)N1CCN1CCOCC1 (stereo not drawn)
    0 | 5.0 | -1.1 | / | 0.72 | 0.0 | 1.9
- COc1cccc(NC(=O)Cc2cccs2)c1
    -5 | 2.6 | 0.0 | -2% | 0.68 | -0.9 | 0.3
- CCOC(=O)c1c(N)n(-c2ccc(N)cc2)c2nc3ccccc3nc12
    -20 | -4.4 | 2.8 | -4% | 0.67 | -0.3 | 0.8
- CC1CCN(CCNC(=O)C2CCCN(S(=O)(=O)c3cccc4nonc34)C2)CC1 (stereo not drawn)
    6 | 0.8 | 1.6 | 7%&6% | 0.71 | -0.2 | -1.8
- CC(=O)N1CCC(=NNC(=O)CSc2cc(C)c(Br)cc2C)CC1
    3 | 1.4 | -2.8 | / | 0.65 | -0.3 | -0.8
- COc1ccc(CNC(=O)CCC(=O)Nc2nnc(C(F)(F)F)s2)cc1
    -5 | 0.1 | -2.9 | / | 0.7 | -0.5 | 1.9
- Cc1ccccc1C(=O)N1CCC(C(=O)Nc2nccs2)CC1
    11 | 3.8 | 4.0 | / | 0.7 | 0.3 | 5.6
- Cc1cc(CNC(=O)c2ccc3nc(Cc4ccccc4F)oc3c2)nn1C
    -7 | -2.0 | -1.2 | / | 0.68 | 0.2 | -1.0
- O=C(CSC1=NS(=O)(=O)c2ccccc2N1)NCCc1ccccc1
    -3 | 5.3 | -4.9 | 5% | 0.69 | -0.3 | 0.6
- C=CCNc1oc(-c2cccc(F)c2)nc1C#N
    6 | 0.5 | 0.9 | / | 0.65 | / | /
- CCc1ccc2[nH]c(=O)c(C(c3nnnn3Cc3ccco3)N3CCC(C)CC3)cc2c1 (stereo not drawn)
    3 | -4.1 | 3.9 | ? | 0.68 | -0.8 | 1.1
- O=C(Cc1c(F)cccc1Cl)Nc1ccccc1C(=O)N1CCCCC1
    2 | 4.1 | -1.4 | -2% | 0.71 | -0.5 | -2.9
- O=C(NCC1CCCN1S(=O)(=O)c1cccs1)c1ccc(Cl)cc1 (stereo not drawn)
    -18 | -1.1 | -0.6 | -5% | 0.61 | -0.4 | -1.5
- CC1(C)CC(=O)C(/C=N/c2ncccc2C(=O)O)=C(O)C1
    0 | / | -1.9 | 0% | / | 1.2 | 2.5
- Cn1c(=NC(=O)CCS(=O)(=O)c2ccccc2)sc2cc(F)ccc21
    1 | 3.2 | -1.3 | -92% | 0.69 | 0.5 | 1.6
- Cc1cc(NC(=O)c2cc(-c3ccccn3)nc3ccccc23)no1
    -12 | 1.6 | -1.8 | 18% | 0.73 | 0.9 | 5.9
- CC(C)CN(C(=O)c1ccc(N2CCCC2=O)cc1)C1CCS(=O)(=O)C1 (stereo not drawn)
    -5 | 2.3 | 1.0 | 2% | 0.66 | 0.0 | -0.4
- Cc1ccc(CN2C(=O)CSC2c2ccc(F)cc2)cc1 (stereo not drawn)
    -3 | 4.0 | -0.7 | 1% | 0.64 | 0.1 | -2.3
- C/C(=N\NC(=O)c1cccs1)c1ccncc1
    -5 | / | 2.9 | -2% | / | -1.1 | -1.2

Source: PubChem
